High-throughput results from PubChem BioAssay.
hNpr1 antagonist = blocks ANP-stimulated signaling of human Npr1 receptor. HEK293 hNpr1 GloSensor cGMP, ANP-stimulated luminescence. Potency, µM (series often up to 46.3 µM), for the others: top-dose activity change, negative = inhibition, usual class: inhibitors. 76,000 compounds, 1.6% hits; active = well fitted inhibition curve with a large enough effect; inconclusive = small, poorly fitted or top-dose-only effect; inactive = no such curve, though single readings can be large or run the other way;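 note: nearly all actives have a fitted effect of over 60% in size; nearly all hits also lower the signal before the agonist is added; a reference antagonist and vehicle were the controls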
Target sequence (P16066 whole entry, looked up): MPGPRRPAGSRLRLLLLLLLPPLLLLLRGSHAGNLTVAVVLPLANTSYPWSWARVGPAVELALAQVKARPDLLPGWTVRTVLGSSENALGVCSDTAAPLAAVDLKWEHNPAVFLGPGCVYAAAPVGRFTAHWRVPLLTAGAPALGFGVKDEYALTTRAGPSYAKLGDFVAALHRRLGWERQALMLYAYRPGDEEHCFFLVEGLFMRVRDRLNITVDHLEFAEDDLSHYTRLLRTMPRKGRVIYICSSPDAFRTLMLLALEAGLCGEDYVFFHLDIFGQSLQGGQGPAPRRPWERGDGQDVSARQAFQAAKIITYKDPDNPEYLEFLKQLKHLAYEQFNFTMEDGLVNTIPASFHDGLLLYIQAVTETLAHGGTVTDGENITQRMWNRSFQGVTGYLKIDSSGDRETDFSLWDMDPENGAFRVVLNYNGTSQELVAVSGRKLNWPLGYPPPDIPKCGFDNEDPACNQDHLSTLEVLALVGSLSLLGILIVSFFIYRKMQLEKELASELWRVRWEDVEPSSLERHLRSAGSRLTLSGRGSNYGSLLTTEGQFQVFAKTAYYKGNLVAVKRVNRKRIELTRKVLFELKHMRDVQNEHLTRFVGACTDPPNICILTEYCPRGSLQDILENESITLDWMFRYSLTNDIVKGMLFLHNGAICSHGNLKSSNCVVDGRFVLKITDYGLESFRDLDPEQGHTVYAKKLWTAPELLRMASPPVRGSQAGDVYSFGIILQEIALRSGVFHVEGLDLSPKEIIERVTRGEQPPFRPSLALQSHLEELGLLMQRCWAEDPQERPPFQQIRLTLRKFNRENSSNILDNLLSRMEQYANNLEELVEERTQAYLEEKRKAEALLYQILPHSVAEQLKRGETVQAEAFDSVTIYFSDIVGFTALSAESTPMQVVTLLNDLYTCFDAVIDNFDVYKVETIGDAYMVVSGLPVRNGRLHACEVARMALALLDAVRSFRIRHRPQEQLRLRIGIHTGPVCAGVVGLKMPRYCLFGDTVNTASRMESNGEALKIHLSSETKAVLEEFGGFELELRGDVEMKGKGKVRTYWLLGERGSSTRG
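HEK293 cells stably expressing human Npr1 and cGMP GloSensor pGS-40F, loaded 2 h with 2% GloSensor reagent, given compound 30 min at room temperature. Luminescence read before and 20 min after 0.1 nM hNppA.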
Starred values were filed as active, the others as inactive; ? = inconclusive; [ ] = remark or other dose. % is set by controls: 0 for no effect and ±100 for the full control effect; potency is the fitted concentration of half-maximal effect. These rows are one share of the data; count on the stated rates, not on these rows.

SMILES	hNpr1 antagonist
O=C(NCc1cccc(C(F)(F)F)c1)c1cccc2c1CCN2C(=O)C1CC1	-24%
CC(C)CCN1CCCC2(CN[S+](=O)([O-])c3ccccc3N2)C1 (stereo unspecified)	0%[70.6 µM]
COC1CCC12CCN(C(=O)CCc1ccccc1)CC2 (stereo unspecified)	2%
O=C(NCCc1nc2ccccc2[nH]1)C1CCN(C(=O)N2CC3CC(C2)[C@H]2CCCC(=O)N2C3)CC1 (stereo partly specified)	6%
COCCN1C(=O)CS(=O)C12CCN(C(=O)NCc1ccc(OC)cc1)CC2 (stereo unspecified)	6%
COc1ccc(CNC(=O)[C@@H]2CCC[C@@H](NCc3nccs3)CN(C)C(=O)C2)cc1	4%[70.6 µM]
CCC1Oc2ccc(NC(=O)COc3ccccc3)cc2CN(Cc2ccc(F)cc2)C1=O (stereo unspecified)	-17%
COc1ccc(-c2nnc3n2CCN(C(=O)c2ccccc2F)C3)cc1	-2%
O=C(c1cc(-c2ccccc2)n[nH]1)N1CCc2c(nc(-c3ccccc3)[nH]c2=O)C1	-5%
Cc1nnc(-c2cc(-c3ccc(CO)cc3)ccn2)n1CCN1CCOCC1	0%[70.6 µM]
COc1ccc(C2Cn3nnc(-c4nc(-c5ccc(OC(F)(F)F)cc5)no4)c3CO2)cc1 (stereo unspecified)	-3%
Cc1cc2cc(-c3c(C)noc3C)nc(NCc3cccc(F)c3)c2o1	-16%[70.6 µM]
Fc1ccc(CNc2ncncc2-c2nc(-c3ccccc3)no2)cc1	-3%
O=C([C@@H]1C[C@H](Oc2ccccc2)CN1S(=O)(=O)Cc1ccccc1)N1CCOCC1	1%
O=C1COc2ccc(Nc3ccccc3)nc2CN1CCOc1ccccc1	?

3 entries from above, field by field.
Structure: Fc1ccc(CNc2ncncc2-c2nc(-c3ccccc3)no2)cc1
  hNpr1 antagonist: -3%
Structure: O=C([C@@H]1C[C@H](Oc2ccccc2)CN1S(=O)(=O)Cc1ccccc1)N1CCOCC1
  hNpr1 antagonist: 1%
Structure: O=C1COc2ccc(Nc3ccccc3)nc2CN1CCOc1ccccc1
  hNpr1 antagonist: ?

Continuation:
SMILES	hNpr1 antagonist
C[C@@]12CO[C@@H](Cc3ccccc3)O[C@@H]1CC[C@]1(C)C2CC[C@@H](O)[C@H]1CC(=O)NCc1ccccc1 (stereo partly specified)	-4%
CN1C(=O)CO[C@H](c2ccc(NC(=O)C3CCCC3)cc2)[C@H]1CO	0%[70.6 µM]
COc1cccc(NC(=O)N[C@H]2CCN(C(=O)c3cnccn3)[C@@H]2C(=O)N[C@@H](CCCNC(=O)c2cnccn2)C(N)=O)c1	0%
COC(=O)c1ccc(NC(=O)Cn2c(-c3cnccn3)nc(C)c(C)c2=O)cc1	-18%
COc1cccc(CNC(=O)[C@@H]2C[C@@H](O)CN2C2CCN(C(=O)c3cccnc3C)CC2)c1	-11%
COc1ccc(Cl)cc1S(=O)(=O)N1CCCC(CO)(Cc2cccc(Cl)c2)C1 (stereo unspecified)	-2%
O=C(Nc1ccccc1)N1C[C@@H](F)[C@@H](OCc2nc3ccccc3o2)C1	0%[70.6 µM]
O=C(c1ccc(F)cc1F)N1CCN(c2cc(-c3ccccc3)[nH]n2)CC1	-2%
Cc1ccc(CN(C)Cc2cnc(S(=O)(=O)C(C)C)n2CCc2ccccc2)o1	-2%
COCc1nc(-c2ccc(OC3CN(C(=O)Cc4ccccc4)C3)cc2)no1	-24%
COc1ccccc1-c1nc(C(=O)NCc2cccs2)n2ccccc12	-9%
CC(NC(=O)c1ccc(-c2nnc3ccc(NC(=O)C4CCC4)cn23)cc1)c1cccs1 (stereo unspecified)	-21%
COc1ccc(C2CC(C(=O)NCc3ccccc3)CN(C(=O)C3CC3)C2)cc1OC (stereo unspecified)	-12%
CCOc1ccccc1C(=O)NCc1nnc2cc(-c3nc(C)no3)ccn12	0%
CC(C)NC(=O)C[C@@H]1C[C@H]2O[C@H](CNC3CCCC3)[C@@H](O)[C@H]2O1	8%[70.6 µM]
COCCn1c(C)nnc1-c1cc(-c2ccc(OC)c(OC)c2)ccn1	2%[70.6 µM]
Cc1cc(C[C@@H]2COC[C@@H]2NC(=O)CCc2n[nH]c(C)n2)on1	-8%
CC(=O)N(C)C1CCCc2ccccc21 (stereo unspecified)	17%[70.6 µM]
O=C(O)[C@@H]1CN(C(=O)CCc2ccc(=O)[nH]n2)C[C@H]1C1CC1	0%
CCCCCNC(=O)Cc1csc2nc(C)c(-c3cc(C)n(-c4ccccc4CC)n3)c(=O)n12	-1%
O=C(CCc1nc2ccccc2s1)N1CCC(c2noc(-c3ccccn3)n2)C1 (stereo unspecified)	4%
Cc1ccc(C(=O)NCc2nc(-c3ccccc3)no2)cc1N1CCNC1=O	4%
COc1ccc(C(=O)N2CCCCCNC(=O)[C@@H]3CCCC[C@@H]32)c(OC)c1	-2%
C[C@@H]1C(=O)O[C@H]2[C@H]1CC[C@@]1(C)Cc3sc(NC(=O)c4ccc(N(C)C)cc4)nc3[C@@H](C)[C@H]21	8.9µM*
O=C(Cc1cccc(F)c1)N1CCC[C@H]1c1nc(-c2ccccc2Cl)no1	0%
COc1cc(C(=O)N[C@H]2[C@@H]3CCO[C@@H]3[C@@H]2C2CCCC2)ccn1	7%
O=C(c1cccc(OC2CN(Cc3cccc(F)c3F)C2)c1)N1CCOCC1	16%
Cc1cc(C[C@@H]2COC[C@@H]2NC(=O)c2cnn3cc(CCO)cnc23)on1	4%
Cc1cccc(C(=O)N2CC(=O)N(C3CCCCC3)CC(OCc3ccccc3)C2)n1 (stereo unspecified)	3%
CNc1ncccc1C(=O)N1CCCC2(C=Cc3ccccc3O2)CC1 (stereo unspecified)	-5%

Structures shown so far containing a Cl atom:
SMILES	hNpr1 antagonist
COc1ccc(Cl)cc1S(=O)(=O)N1CCCC(CO)(Cc2cccc(Cl)c2)C1 (stereo unspecified)	-2%
O=C(Cc1cccc(F)c1)N1CCC[C@H]1c1nc(-c2ccccc2Cl)no1	0%

Next part
SMILES	hNpr1 antagonist
O=C(NCC1CCCO1)c1cnc2c(c1)N(Cc1ccccc1)CCC2 (stereo unspecified)	2%[70.6 µM]
O=C1NC(C(=O)NCc2ccc(Cl)cc2)Cn2cccc21 (stereo unspecified)	2%
O=C(NCc1nnc2c(-c3nc(C4CC4)no3)cccn12)c1c[nH]c2ccccc12	-7%
CCn1nccc1C(=O)N1CC(N(Cc2cccnc2)CC(C)C)C1	3%
Cc1cccc(OCC2(CNC3CCC3)C[C@@H](O)[C@@H](O)C2)n1 (stereo partly specified)	5%[70.6 µM]
CC(C)Oc1ccc2c(NC(=O)c3ccnn3C)nn(Cc3ccccc3)c2c1	-7%
COc1ccc(OC)c(CN2CCC3(CC2)CC3C(=O)N(C)CCOc2ccc(C)cc2)c1 (stereo unspecified)	4%
COCC[C@]1(O)CCN(S(=O)(=O)N(C)Cc2ccccc2)C[C@H]1C	15%
CN1C(=O)CCC2(CNC(=O)c3cn[nH]c3-c3ccc(F)cc3)CCC=C12 (stereo unspecified)	1%
COc1ccc(OC)c(CNC(=O)C2Cn3cccc3C(=O)N2CC(C)C)c1 (stereo unspecified)	-13%
C[S+](=O)([O-])N1CCCC2(C1)C(=NC1CCCCC1)NC(=O)N2c1cccnc1 (stereo unspecified)	-14%
O=S(=O)(NC[C@H]1O[C@@H](CO)[C@@H](O)[C@H]1N1CCN(c2ncccn2)CC1)c1ccccc1	4%
CC1=NS(=O)(=O)N(C)C=C1C(=O)OCc1noc(-c2cccs2)n1	10µM*
CC1=C[C@@H](CNC(=O)N2CCOCC2)[C@H](C(C)C)C[C@H]1Cc1nc2ccccc2[nH]1	-7%[70.6 µM]
Cc1c(C(C)NC(=O)C2(c3ccc(Cl)cc3)CCC2)cnn1-c1ccccn1 (stereo unspecified)	-4%

An excerpt from above in order of number of heavy atoms, low to high.
SMILES	hNpr1 antagonist
Cc1cccc(OCC2(CNC3CCC3)C[C@@H](O)[C@@H](O)C2)n1 (stereo partly specified)	5%[70.6 µM]
CN1C(=O)CCC2(CNC(=O)c3cn[nH]c3-c3ccc(F)cc3)CCC=C12 (stereo unspecified)	1%
C[S+](=O)([O-])N1CCCC2(C1)C(=NC1CCCCC1)NC(=O)N2c1cccnc1 (stereo unspecified)	-14%

Further records follow.
SMILES	hNpr1 antagonist
CN(CC1CCOC1)C(=O)c1cccs1 (stereo unspecified)	-3%
CCC(CC)C(=O)N1CC[C@H]2NC(=O)N(c3ccc(C)cc3)C(=O)[C@H]21	0%[70.6 µM]
Cc1ncoc1C(=O)N1CC[C@H](CO)[C@H](N(C)C)C1	0%
CN(C)c1ccc(-c2nc(C3CC(=O)N(c4ccc(Cl)cc4)C3)no2)cc1 (stereo unspecified)	3%
COc1ccc2c(c1)OCC(CNC(=O)c1scc3c1OCCO3)C2 (stereo unspecified)	-15%
COc1ccc(CN2C[C@H](O)C[C@H]2c2nc(Cc3ccc(F)cc3Cl)no2)c2ccccc12	-2%
COc1ccc(C(=O)N2CCc3nc(-c4ccccc4)nc(-c4ccc(OC)cc4)c3C2)cc1	2%
COCCNC(=O)C(C)N1C(=O)COc2ccc(C(=O)COc3ccc(C)c(C)c3)cc21 (stereo unspecified)	-10%
O=C(c1cccs1)N1CC(c2noc(C3CCCN3CC3CC3)n2)C1 (stereo unspecified)	-3%
COCc1noc(CNc2cc(-c3ccccc3F)nc3ccnn23)n1	8%
COC(=O)c1cn([C@H]2CO[C@H]3[C@@H]2OC[C@@H]3NC(=O)Nc2ccc(OC)cc2)nn1	-3%[70.6 µM]
O=C(N[C@@H](CO)c1ccccc1)c1cc(COc2cccc(F)c2)[nH]n1	-1%
Cc1cc(C)n(CC(=O)N2CCCCC2C(=O)Nc2ccc(-n3nc(C)cc3C)cc2)n1 (stereo unspecified)	1%
COc1ccc(-c2ccc3ncc(Nc4ccccc4C)n3n2)cn1	-1%[70.6 µM]
Cn1ncc2c(NCc3noc(-c4cccs4)n3)nc(C(C)(C)C)nc21	?
O=C(NCCn1ccn2nc(-c3ccc(F)cc3)cc2c1=O)c1cccc(Cl)c1	?
Cc1nc(N2CCC(C(=O)NC3CCc4ccccc43)CC2)cc(C(F)(F)F)n1 (stereo unspecified)	?
CN1CCCN(C[C@@H]2CN(C(=O)c3ccnc4ccccc34)C[C@@H]2CO)CC1	8%
CC(=O)N1CCCN(C(=O)[C@@H]2Cc3cn(C)c4cccc(c34)[C@H](CC(C)C)N2)CC1	1%[70.6 µM]
Cc1cccc(C(=O)NC(C(=O)N2CCCC2)C2CCN(C(=O)c3cccs3)CC2)c1 (stereo unspecified)	0%
COCCN1CCCC2(CCN(c3nc(C)nc4sccc34)C2)C1=O (stereo unspecified)	?
C=CCN1CCC2(CCC1=O)CN(c1ccc(C#N)cn1)CCN2C (stereo unspecified)	1%
CC(=O)N1CCC(C(=O)NCc2cccnc2N(C)Cc2ccccc2)CC1	13%
CCc1cn(C[C@@H](C(=O)O)N(C)C)c(=O)[nH]c1=O	5%[70.6 µM]
CN(C)C(=O)C1CN(C(=O)Nc2cc(F)c(F)c(F)c2)CC12CCOCC2 (stereo unspecified)	3%
O=C(CN1CCC(c2ccccc2)CC1)N[C@H](c1ccccn1)C1CC(O)C1 (stereo partly specified)	0%
Cc1nn(-c2ccc(F)cc2)c(Oc2ccccc2F)c1CCC(=O)NC(C)C	-25%
COCCn1cc2c3c(cccc31)CN(C(=O)c1ccc(C)c(C)c1)CC2	-6%
CN(C)S(=O)(=O)N1CC(c2nnc(-c3ccncc3)o2)C2(CCOCC2)C1 (stereo unspecified)	-5%
CCCNC(=O)CC(c1ccc(F)cc1)c1c[nH]c2ccccc12 (stereo unspecified)	-12%

As entered above.
`CCc1cn(C[C@@H](C(=O)O)N(C)C)c(=O)[nH]c1=O` | hNpr1 antagonist = 5%[70.6 µM]
`CC(=O)N1CCC(C(=O)NCc2cccnc2N(C)Cc2ccccc2)CC1` | hNpr1 antagonist = 13%
`CCCNC(=O)CC(c1ccc(F)cc1)c1c[nH]c2ccccc12` (stereo unspecified) | hNpr1 antagonist = -12%

(list continues)
SMILES	hNpr1 antagonist
CCC(C)NC(=O)CN1C(=O)NC2(CCC(C(C)(C)C)CC2)C1=O (stereo unspecified)	12%
CN1CCCCCC(O)c2cc(C(=O)NCc3nc4ccccc4n3C)ccc21 (stereo unspecified)	-9%
CN1CCc2c([nH]c3ccccc23)C12CCN(C(=O)c1ccsc1)CC2	-5%
COc1cccc(CC(=O)N2CC[C@@H](NC(=O)c3cnccn3)[C@H](O)C2)c1	12%
COc1cc(OC)c(NC(=O)CN2C(=O)NC3(CCOCC3)C2=O)cc1Cl	2%
CNC(=O)C1(N2CCC[C@H]2C(=O)NCCN2CCOCC2)CCCCC1	-1%
CC1=C[C@@H](CNC(C)C)[C@H](C(C)C)C[C@H]1Cc1nnc(-c2ccc(C)cc2)o1	4%[70.6 µM]
NC(=O)c1ccc(CC2CCN(C(=O)C3CCOC3)CC2)cc1 (stereo unspecified)	7%
Cc1cc(-c2cccc(OC(C)C)c2)cnc1-n1cnnc1	-4%
Cc1cnc(C(=O)N2CCC(N3C(=O)C(OCC4CC4)C34CCOCC4)CC2)cn1 (stereo unspecified)	-1%
COc1cccc(N2CC(C(=O)N3CCC(C(=O)NCCc4ccc(Cl)cc4)C3)NC2=O)c1 (stereo unspecified)	-1%
CN(Cc1cccnc1)c1nc2c(c(=O)[nH]1)CCN(Cc1ccccc1C#N)CC2	-9%
OC[C@@H]1CN(CC2CCCCC2)C[C@H]1c1nc(C2CC2)no1	2%
Cc1ccc2nc(CO[C@H]3CN(C4CCC4)C[C@H]3F)[nH]c2c1	-16%[70.6 µM]
Cc1ccc(-c2cn[nH]c2C2CCCN(Cc3cn(CCO)nc3C)C2)cc1 (stereo unspecified)	0%
COCCOc1ccc2c(n1)CCN(C(=O)C1CC1)C2	1%
COc1ccc(-c2noc([C@@H]3C[C@H](NCc4ccccn4)CN3C)n2)cc1	?
